D2 potentiator = positive allosteric modulators of human D2 dopamine receptor | DiscoveRx D2 beta-arrestin cells, luminescence, 90 min; 100% = 57 uM dopamine signal | P14416 | actives 0.23% (n = 360,000) | AID 624464 | potentiation, % (no concentration beside the values); active = potentiation of 50% or more; inconclusive = 30% to 50%; inactive = 30% or less;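 further: compound concentration not given in the record; tested on top of an EC20 dose of dopamine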
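PathHunter D2 cells, attached overnight at 37 deg C, received compound in DMSO plus dopamine at EC20 (50 nM final) for 90 min at 37 deg C. Beta-arrestin recruitment was read as luminescence after 1 h with detection reagent at ambient temperature.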
gsp antagonist = gsp mutant antagonism; actives 0.4% (n = 340,000); gsp-mutant cells, cAMP HTRF, 30 min; control for the full effect not named in the record; Potency, µM (titrated, usually from 76.9 µM), inactives show at the top dose activity change, negative = inhibition, most hits filed as inhibitors; AID 624288; active = falling curve of any shape with a large fitted effect; inconclusive = falling curve, mostly with a smaller effect; inactive = flat or rising curve; cell line not stated here;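 further: intracellular cAMP measured with PDE inhibitor Ro 20-1724 present during compound exposure; potency means the concentration at half of the fitted maximal effect; on the % scale 0 is the no-effect control and ±100 the full control effect; nearly all actives have a fitted effect of over 65% in size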
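HTRF cAMP read-out (cAMP-d2 plus anti-cAMP antibody-K in lysis buffer, 30 min RT). Before lysis, cells are exposed to compounds with […] for 30 min at 37C in DPBS containing Ca/Mg, BSA and Tween 20.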
gsp agonist = activates gsp, the McCune-Albright syndrome mutation. gsp mutant cells, cAMP HTRF, 30 min; control for the full effect not named in the record. Potency, µM (titrated, usually from 76.9 µM), without a hit: top-dose activation (cAMP increase), usual class: activators. actives 0.13% (n = 340,000); active = well fitted activation curve with a large enough effect; inconclusive = small, poorly fitted or top-dose-only effect, or another doubt; inactive = no such curve, though single readings can be large or run the other way; cell line not stated here;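 further: phosphodiesterase inhibitor Ro 20-1724 added with compounds to block cAMP breakdown; potency means the concentration at half of the fitted maximal effect; nearly all actives have a fitted effect of over 60% in size; about a fifth of the inactives were tested at one dose only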
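Cells stably selected in G418 were plated at 2000/well, grown 16-24 hr, then given compounds in DMSO with the PDE inhibitor […] (300 uM solution added) for 30 min at 37C; cAMP was read by HTRF.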
Six1-Eya2 inh = inhibitors of human Six1/Eya2 interaction. AlphaScreen GST-Six1/His-Eya2 binding, biochemical; stronger effect = lower value; control for the full effect not named in the record. Q15475+O00167. actives 0.56% (n = 360,000). AID 651725. activity change, % (test concentration not listed); in the data active = activity change below about -65%; inconclusive = about -30% to -65%; inactive = above about -30%; further: on the % scale 0 is the no-effect control and ±100 the full control effect; compound concentration not given in the record
Target sequence (O00167 whole entry, looked up): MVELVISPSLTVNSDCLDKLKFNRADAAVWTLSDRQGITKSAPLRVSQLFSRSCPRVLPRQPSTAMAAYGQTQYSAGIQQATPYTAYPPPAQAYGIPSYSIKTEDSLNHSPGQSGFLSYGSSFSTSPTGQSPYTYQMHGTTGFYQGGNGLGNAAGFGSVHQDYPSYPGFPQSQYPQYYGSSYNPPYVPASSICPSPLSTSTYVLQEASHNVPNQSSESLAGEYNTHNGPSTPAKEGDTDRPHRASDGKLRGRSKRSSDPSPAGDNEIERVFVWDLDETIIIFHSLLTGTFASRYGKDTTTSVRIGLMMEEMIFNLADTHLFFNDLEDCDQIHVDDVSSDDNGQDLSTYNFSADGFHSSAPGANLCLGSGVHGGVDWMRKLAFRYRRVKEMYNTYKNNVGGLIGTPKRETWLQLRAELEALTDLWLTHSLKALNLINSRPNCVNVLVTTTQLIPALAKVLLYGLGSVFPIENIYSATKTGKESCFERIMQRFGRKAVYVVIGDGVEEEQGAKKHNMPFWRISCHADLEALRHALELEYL
Target sequence (Q15475 whole entry, looked up): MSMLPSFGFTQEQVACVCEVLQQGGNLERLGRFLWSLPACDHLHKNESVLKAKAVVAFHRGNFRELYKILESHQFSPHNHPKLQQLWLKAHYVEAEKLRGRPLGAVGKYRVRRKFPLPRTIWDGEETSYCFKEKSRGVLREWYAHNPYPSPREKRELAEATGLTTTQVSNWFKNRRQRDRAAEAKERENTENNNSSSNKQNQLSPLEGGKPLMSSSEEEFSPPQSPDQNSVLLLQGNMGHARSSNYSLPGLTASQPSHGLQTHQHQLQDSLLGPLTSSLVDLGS
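GST-Six1 + His-Eya2 (5X stock: 250/500 nM); Tris pH 8.0, 300 mM NaCl, 0.05% BSA, 0.02% Tween 20; GSH donor/Ni acceptor beads; 1 h 37 °C dark; AlphaScreen readout.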
D2 ag = agonists of human D2 dopamine receptor (beta-arrestin); P14416; DiscoveRx PathHunter D2 beta-arrestin, luminescence, 90 min; 100% = 57 uM dopamine signal; activation, % (no concentration beside the values); actives 0.084% (n = 360,000); AID 624465; in the data active = activation above about 40%; inconclusive = about 15% to 40%; inactive = below about 15%; further: compound concentration not given in the record; the text of the record calls up to 30% inactive
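DiscoveRx PathHunter D2 beta-arrestin cells (2,100/well) attached overnight, then compound-stimulated 90 min at 37 C in HBSS/10 mM HEPES/0.1% Tween-20 buffer; beta-galactosidase complementation read by luminescence after 1 h at ambient temperature. Dopamine 57 uM final (EC100) as control.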
CtBP-E1A blk = blocks the CtBP interaction with E1A; AlphaScreen GST-E1A/His-CtBP binding, 1536-well; stronger effect = lower value; control for the full effect not named in the record; actives 0.49% (n = 340,000); activity change, % (test concentration not listed); in the data active means activity change below about -65%; inconclusive means about -30% to -65%; inactive means above about -30%; further: on the % scale 0 is the no-effect control and ±100 the full control effect; compound concentration not given in the record
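Steps: dispense buffer (Tris pH 8.0, NaCl 300 mM, TCEP 1 mM, BSA, Tween 20); add 5X protein mix (GST-E1A, His-CtBP, 125 nM each); pin 23 nL compound; 2 h at 37 °C, dark; add 5X beads (50 ug/mL); 1 h; read.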
Numbers without * were called inactive; ? = inconclusive; . = no result given; [ ] = remark or other dose.

Fields – gsp agonist, gsp antagonist, CtBP-E1A blk, Six1-Eya2 inh, D2 potentiator, D2 ag
O=C(Nc1ccccc1N1CCOCC1)c1csc2c1CCCC2
  11%, -1%, 2, -1, -10, -2.5
CC(=O)c1ccc(OC(=O)CCNC(=O)c2ccccc2)cc1
  17%, -11%, 0, ?, -5, -0.1
CCOC(=O)C1(C)CCN1C(=O)c1ccc(OC)c(OC)c1 (stereo not drawn)
  ., ., 0, 4, -4, -3.9
O=C(Nc1ccccc1F)C1(c2ccccc2)CC1(Cl)Cl (stereo not drawn)
  13%, 1%, 3, 4, -9, -0.5
Cc1ccc(C(=O)C(C)OC(=O)Cn2cnc3c2c(=O)n(C)c(=O)n3C)cc1 (stereo not drawn)
  18%[15.4 µM], -8%, -2, 0, -4, -1.3
CCc1ccc(C(O)c2ncc(-c3ccccc3C)[nH]2)cc1 (stereo not drawn)
  ., ., -6, -12, -10, -4.4
CN1CCN(C(=O)c2ccc3c(c2)NC(=O)C(N2CCOCC2)S3)CC1 (stereo not drawn)
  1%, 6%, -1, -1, -18, -3.4
CCOC(=O)C1CCN(S(=O)(=O)c2ccc3[nH]c4c(c3c2)CCCC4)CC1
  26%, -19%, -14, -19, -7, 3.2
O=C(NCc1cccc(C(F)(F)F)c1)c1ccc2sc([C@H]3C[C@H](O)[C@@H](CO)O3)nc2c1
  ., ., -12, -9, 2, 4.9
COc1ccc(C(=O)NCc2cc(C)nc3ccccc23)cc1OC
  6%[15.4 µM], 14%, -1, -13, 4, 3.8
COc1ccc(N(C(=O)c2ccco2)S(=O)(=O)c2cccs2)cc1
  7%, -14%, 2, 6, 2, -3.1
COC(=O)Cc1cc(=O)n2[nH]c(C)nc2n1
  -16%, -3%, 9, 6, 4, -0.9
Cc1ccccc1CC1(CO)CCCN(Cc2c(C)nn(C)c2Cl)C1 (stereo not drawn)
  10%, 4%, 0, -5, -13, -1.0
Cc1cc(C)c(C(=O)C2OC(=O)C(C)(C)C(=O)C2(C)C)c(C)c1 (stereo not drawn)
  10%, -7%, 0, 20, -7, -2.7
Cn1c(NNC(=O)c2c(F)cccc2F)cc(=O)n(C)c1=O
  11%, -2%, ., 4, -8, -2.1
Cc1cc(Cl)ccc1OCC(=O)NCc1ccncc1
  -6%, -3%, 10, 1, 0, -0.4
CC(NC(=O)c1ccccc1NS(C)(=O)=O)c1ccccc1 (stereo not drawn)
  -19%, 10%, 1, 6, -5, 1.4
CC(C)n1nc(C(=O)Nc2cccc(S(=O)(=O)N3CCOCC3)c2)c2ccccc2c1=O
  26%, 5%, -13, -1, -2, -7.6
Cc1c(CC(=O)NCCCCCC(=O)O)c(=O)oc2cc3c(cc12)CCC(C)(C)O3
  -6%, 3%, 6, 1, 3, 9.0
CN1C(=S)N(c2cccnc2)C(=O)/C1=C\c1ccc(N(C)C)cc1
  0%, -13%, -12, -20, -8, -5.4
O=C1c2ccccc2C(Nc2ccc(S(=O)(=O)N3CCCCC3)cc2)N1c1ccccn1 (stereo not drawn)
  5%, -1%, 1, -3, -6, 1.5
O=c1nc2scc(-c3ccccc3)n2c2ccccc12
  18%, 32%[activator], -9, -5, -4, -0.1
CCOC(=O)C1=C(N)OC2=C(C(=O)CC(C)(C)C2)C1c1ccccc1OCC#N (stereo not drawn)
  4%, -16%, 0, -1, 0, -2.1
COc1ccc(CN2C(=S)NC(C)(C)CC2(C)O)cc1 (stereo not drawn)
  -10%, -2%, -15, -14, 7, -5.6
COc1ccc(NS(=O)(=O)c2cccc(C(=O)NNC(=O)c3ccccc3O)c2)cc1
  -1%[15.4 µM], -7%, -20, -16, 0, -0.6
C/C(=N/NC(=O)c1ccoc1C)c1cccc(NC(=O)C(F)(F)F)c1
  3%, -2%, 4, 5, -17, -2.0
COc1ccc2c(c1OC)C(=O)OC2Nc1nc(-c2ccccc2)cs1 (stereo not drawn)
  1%, 3%, ?, -7, -10, -3.2
Cc1ccc(-c2cc(Cc3ccc(F)cc3)c(=O)[nH]n2)cc1
  -26%, -5%, ., -3, -18, -3.8
Cc1ccc(Nc2ncnc(N)n2)cc1
  -5%, 9%, -6, 4, -2, 1.5
CCOC(=O)C1=CCN(S(=O)(=O)c2ccccc2C)C1c1ccc(C)cc1 (stereo not drawn)
  ., ., 10, 7, 1, -1.5
Nc1nc(-c2ccccc2)[nH]c(=O)c1N=O
  -3%, ?, ., ?, 6, -1.0
CN1CCN(c2ccc([N+](=O)[O-])cc2NC(=O)c2cccs2)CC1
  2%, -1%, -4, -17, -28, -4.8
COc1ncnc2c1ncn2CCCNCc1ccc2c(c1)OCO2
  ?, ., 2, -8, -7, -5.1
c1ccc2[nH]c3cc4ncnc4cc3nc2c1
  -5%[15.4 µM], -29%, -73*, ?, 7, 8.1
NC(=O)C1=C[C@@H](c2ccc(Br)cc2)C[C@@H](OCCCCO)O1
  ., 3%, 3, 11, -11, -2.0
COc1ccc(C(=O)NCC(=O)OCC(=O)c2c[nH]c3ccccc23)cc1
  -47%[inhibitor], ., -3, -3, -14, -2.3
CC(=O)c1c(C)oc2c1cc(O)c1ccccc12
  21%, 7%, -11, -7, -7, 0.3
COc1ccccc1CNC(=O)C1(C)Oc2cccnc2NC1=O (stereo not drawn)
  9%[15.4 µM], -19%, 1, 6, -1, -1.8
O=C(CCCN1C(=O)/C(=C/c2ccco2)SC1=S)Nc1ccccc1C(=O)O
  -73%[inhibitor], -22%, -24, ?, 21, ?
CCCc1cc2c(-c3ccccc3)cc(=O)oc2cc1OCc1ccc(C(=O)O)o1
  21%[15.4 µM], -1%, ., -5, -1, -3.4
CCCn1nc(NC(=O)c2cccs2)c2cc3ccccc3nc21
  18%, -7%, 31, 38, 3, -1.3
CCn1c(CSc2nc3ccccc3[nH]2)n[nH]c1=S
  -36%[inhibitor], 1%, 4, 6, -13, 1.3
COc1cc(CN2CCC(C(=O)N3CCN(c4ccccc4F)CC3)CC2)ccc1O
  -20%, 13%, -2, 5, 1, 7.9
CC(C)CNC(=O)COc1ccc2c3c(c(=O)oc2c1)CCC3
  -52%[inhibitor], -2%, -1, -1, -23, -2.4
Cc1ccc(S(=O)(=O)N2CCCCC2)cc1NC(=O)COC(=O)C1CC1
  -70%[inhibitor], ., 0, 3, -11, -0.7
CCC(N)C12CC3CC(CC(O)(C3)C1)C2 (stereo not drawn)
  -39%[inhibitor], 2%, 2, 2, ?, -0.6
CCCc1ccc(-c2csc(NC(=O)C3=COCCO3)n2)cc1
  ?, -20%, ., -1, -9, -1.8
COc1cc(C(=O)NCC(=O)OCn2nnc3ccccc3c2=O)cc(OC)c1OC
  -14%, 2%, 1, 2, 0, -3.6
CCOC(=O)c1ccc2c(c1)sc(=NC(=O)c1ccco1)n2CCOC
  2%, -13%, 2, -4, -6, 2.7
Cc1cc(N)ccc1NC(=O)CN1CCCC1
  ?, 2%, -5, 2, -10, -15
COC(=O)C1CCN(c2c([N+](=O)[O-])cc(C(F)(F)F)cc2[N+](=O)[O-])CC1
  -27%, -9%, -22, ?, 5, 3.4
O=C(c1cccc(N2CCNC2=O)c1)N1CCCC(Nc2cccc(F)c2)C1 (stereo not drawn)
  -40%[inhibitor], 0%, 1, 5, -6, 3.1
CC(=O)N1CCc2ccc(S(=O)(=O)Nc3ccccc3Cl)cc21
  ?, -1%, -20, 1, -16, 1.8
O=C1CCCC2=C1C(c1ccc(O)c(Br)c1)C1=C(CCCC1=O)N2c1ccccc1
  -2%, ?, -7, -4, -2, 4.2
CN(C)c1ccc(/C=N\NC(=O)CC#N)cc1
  -25%, -29%, -7, -9, -5, -2.8
CC(=O)Nc1c(-c2ccc(Cl)cc2)c(=O)c2ccccc2n1C
  25%[15.4 µM], -1%, 11, 59, -5, -0.9
Cc1cc(C)nc(Nc2ccc(Cl)cc2C)n1
  25%, -11%, ., 3, -11, -2.6
CCOC(=O)C1(Cc2cccc(Cl)c2)CCCN(C(=O)c2ccoc2C)C1 (stereo not drawn)
  7%, -11%, 0, -17, -3, -4.3
CC(=O)c1ccc(Nc2cc(C)nc3c(C)cc(C)cc23)cc1
  5%, 8%, 4, 0, -8, 6.6
O=C(CN1C2CCCC1CC(NC(=O)C1CCCCC1)C2)Nc1ccccc1 (stereo not drawn)
  3%, 3%, 10, -1, -6, -0.7

Part of the list above, limited to gsp antagonist.
SMILES | gsp antagonist
O=C(Nc1ccccc1F)C1(c2ccccc2)CC1(Cl)Cl (stereo not drawn) | 1%
Cc1ccc(C(=O)C(C)OC(=O)Cn2cnc3c2c(=O)n(C)c(=O)n3C)cc1 (stereo not drawn) | -8%

Additional records follow.
Fields – gsp agonist, gsp antagonist, CtBP-E1A blk, Six1-Eya2 inh, D2 potentiator, D2 ag
CCc1ccc(-n2nc3cc(C)c(N)cc3n2)cc1
  23%, 8%, ., 8, -32, 8.9
N#C/C(=C\c1cccnc1)C(=O)Nc1cccc2ccccc12
  ?, 10%, 11, 5, -14, -1.5
CC1(C)Cc2c(c(-c3ccco3)[nH]c(=O)c2C#N)CO1
  -5%, 0%, -4, -5, 0, -0.1
CCn1c(=O)cc(OCC(=O)NCc2ccco2)c2ccccc21
  -46%, 0%, -1, -4, -1, -3.5
CC(=O)c1ccccc1C(=O)NCc1cccnc1
  -43%[inhibitor], 0%, -6, -3, -8, -4.3
O=S(=O)(c1cccc(-c2n[nH]c(=S)n2-c2cccc(C(F)(F)F)c2)c1)N1CCOCC1
  40%, -16%, 2, -3, -5, -0.3
CSc1cccc(NC(=O)CN(C)S(=O)(=O)c2cnc[nH]2)c1
  12%, -2%, 3, -2, -5, -2.8
Cc1cn([C@H]2C[C@H](O)[C@@H](/C=C/C(=O)NCCc3cccnc3)O2)c(=O)[nH]c1=O
  ., ., 5, 7, -7, -2.5
Cc1cc(C)cc(NC(=O)NCC(O)COc2ccc([N+](=O)[O-])cc2)c1 (stereo not drawn)
  -2%, -4%, ., -3, -11, -1.2
CCOC(=O)c1[nH]c2ccc(F)cc2c1NC(=O)CCN1CCOCC1
  -1%[15.4 µM], -6%, -2, 12, -9, -4.7
CCc1nnc(NC(=O)CSc2nnc(C3CCCCC3)n2-c2ccccc2)s1
  1%, -25%, -6, -5, -7, -1.3
CC(C)(C)c1ccc(N2C(=N)SCC2=O)cc1
  0%[15.4 µM], -4%, 0, 0, -2, -3.2
Cc1cccc(C(=O)NC2CCN(S(=O)(=O)c3cccc(F)c3)CC2)c1
  0%, 6%, ., 19, -16, 5.4
Cn1c(CNC(=O)CNC(=O)Cc2ccc(F)cc2)cc(=O)n(C)c1=O
  6%, 12%, 2, 2, 4, 1.6
CC(C)C[C@H]1CN=C(Nc2ccccc2)N1CC(C)C
  ., -8%, -5, 9, -12, -2.9
COc1ccc2c(c1O)-c1ccccc1CCN(C)C2
  ., -5%, 1, 10, -31, -2.6
